GLA inh pH 4.5 – inhibitors of human alpha-galactosidase A at pH 4.5; AID 1467; P06280; activity change, negative = inhibition, % at 105 µM; 230,000 tested, under 10 active; purified enzyme, 4-MU-alpha-Gal fluorescence, pH 4.5; inconclusive = small, poorly fitted or top-dose-only inhibition, or a rising curve; inactive = flat fitted curve, though single readings scatter; no compound was filed as active;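 note: 0% = full activity with enzyme and -100% = basal without enzyme; dose as in the result columns while the protocol names 77 µM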
Rango complex inh – inhibitors of Rango-importin beta complex formation; Q14974; Rango CFP/YFP FRET sensor + importin beta, 45 min; Potency, µM (highest dose often 92.2 µM), for inactives: at the top dose inhibition of complex formation; 340,000 tested, 0.031% active; active = rising FRET ratio curve, often small or poorly fitted; inconclusive = mostly compound fluorescence or quenching in the first reads; inactive = flat curves in all reads;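 note: potency is the fitted concentration of half-maximal effect; 0% = DMSO wells and 100% = buffer wells lacking importin beta; nearly all actives have a fitted effect of over 15% in size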
Target sequence (Q14974 whole entry, looked up): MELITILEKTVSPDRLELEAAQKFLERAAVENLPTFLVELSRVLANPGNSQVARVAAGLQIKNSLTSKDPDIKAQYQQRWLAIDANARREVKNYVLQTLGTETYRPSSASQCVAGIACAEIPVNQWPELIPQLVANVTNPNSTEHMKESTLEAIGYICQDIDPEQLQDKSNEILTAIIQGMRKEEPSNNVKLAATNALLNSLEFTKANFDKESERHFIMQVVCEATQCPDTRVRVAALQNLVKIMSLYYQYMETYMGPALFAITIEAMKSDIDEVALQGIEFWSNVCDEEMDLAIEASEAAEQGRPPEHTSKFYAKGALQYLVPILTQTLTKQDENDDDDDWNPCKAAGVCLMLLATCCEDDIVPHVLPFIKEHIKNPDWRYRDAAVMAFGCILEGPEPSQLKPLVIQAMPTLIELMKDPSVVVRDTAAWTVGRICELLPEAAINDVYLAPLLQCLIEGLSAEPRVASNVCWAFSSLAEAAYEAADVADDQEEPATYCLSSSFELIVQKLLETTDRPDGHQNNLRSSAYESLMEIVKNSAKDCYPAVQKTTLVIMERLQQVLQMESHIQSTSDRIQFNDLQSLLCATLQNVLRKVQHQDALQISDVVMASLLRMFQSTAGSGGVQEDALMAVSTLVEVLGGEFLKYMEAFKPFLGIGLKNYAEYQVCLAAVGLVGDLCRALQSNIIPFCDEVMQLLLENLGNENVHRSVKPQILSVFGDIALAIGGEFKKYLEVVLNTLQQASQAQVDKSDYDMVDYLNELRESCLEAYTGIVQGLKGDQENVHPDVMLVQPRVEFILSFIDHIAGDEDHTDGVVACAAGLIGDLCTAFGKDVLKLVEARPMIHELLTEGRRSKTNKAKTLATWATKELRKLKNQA
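FRET biosensor Rango (snurportin 1 IBB between N-terminal EYFP and C-terminal Cerulean), 50 nM in PBS/1 mM DTT/0.02% Tween-20/0.1% BSA, preincubated 5 min RT with compound; 0.125 microM importin beta added, 45 min RT, CFP/YFP FRET ratio read.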
miR-21 reporter – miR-21 reporter, rising signal | HeLa miR-21 FLuc reporter, luciferase, 48 h | 340,000 tested, under 10 active | AID 2288 | Potency, µM (titrated, usually from 38.3 µM), for inactives: top-dose reporter change, positive = more light; active = well fitted rising curve with a large enough effect; inconclusive = small, poorly fitted or top-dose-only effect; inactive = no such curve, though single readings can be large or run the other way;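 note: % of control where 0% means no effect; miR-21 action dims this reporter so a rising signal means less miR-21 action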
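HeLa cells stably expressing CMV-driven firefly luciferase with a downstream miR-21 binding sequence, endogenously expressing miR-21, were treated with titrations (up to about 40uM final) for 48 hours at 37 degree Celsius. Luciferase luminescence was read after lysis.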
Rango dissoc inh – inhibitors of RanGTP-induced Rango-importin beta complex dissociation. Biochemical FRET Rango-importin beta, RanGTP-induced dissociation. Potency, µM (doses to about 46.1 µM), without a hit: at the top dose activity change, negative = inhibition. 340,000 tested, 0.071% active. AID 540253; active means falling FRET ratio curve, often poorly fitted, with flat reads before Ran was added; inconclusive means other falling curves, or compound fluorescence or quenching; inactive means flat or rising ratio curve;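 note: potency is the fitted concentration of half-maximal effect; % of control where 0% means no effect; nearly all actives have a fitted effect of over 45% in size; -100% = wells without RanGTP and RCC1; the record marks most hits as doubtful in a second field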
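Compounds sat 5 min at room temperature with 0.1 uM Rango biosensor plus 0.25 uM importin beta, then FRET pre-read. RanGTP-RCC1 (0.6 uM Ran, 2mM GTP, 0.2 uM RCC1) added for 45 min, and the CFP/YFP post-read measured blocked complex dissociation.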
Starred values were filed as active, the others as inactive; ? = inconclusive; nt = not tested or not shown; & = joins results of further samples.

SMILES	GLA inh pH 4.5	Rango complex inh	miR-21 reporter	Rango dissoc inh
O=C(O)C(c1ccccc1)C(c1ccccc1)c1ccccc1 (stereo not given)	-2	-0.5%	-6%	-12%
O=C(Nc1ccccc1Cl)c1ccc([N+](=O)[O-])o1	nt	0.3%	11%	17%
Clc1cccc(Oc2ncccn2)c1	-4	-0.9%	-5%	0%
Cc1ccc2nc(NC(=O)c3cccc(-c4cc5ccccc5oc4=O)c3)sc2c1	6	-2.4%	-47%	-18%
CC(=O)c1ccc(-n2ccc(=O)cc2)cc1	nt	1.6%	1%	1%
CCCN1C(=O)C(NC(=O)c2ccncc2)(C(F)(F)F)C2=C1CC(C)(C)CC2=O (stereo not given)	0	-0.7%	-4%	1%
O=C(Nc1ccccc1-c1ccccc1)c1ccc(Br)o1	2	-1.0%	-5%	1%
C[C@@H]1NC(=O)c2cc([N+](=O)[O-])cc(I)c2OCC[C@@H](C(N)=O)NC(=O)[C@H](CCCCN)NC1=O	-5	5.7%	4%	-5%
N#Cc1c(=O)c2nc(NCCCO)ncc2n2c(=O)c3ccccc3[nH]c12	-8	?	5%	?
O=C(OCC(=O)N1CCN(C(=O)c2ccco2)CC1)c1ccccc1O	0	-3.0%	-7%	5%
CC(C)(C)OC(=O)N(Cc1ccccc1)Cc1ccccc1OCc1cccc(NC(=O)c2ccccc2)c1	nt	-11%	nt	-1%
Nn1c(Cc2cccc3ccccc23)nnc1SCCOc1ccc(Br)cc1	5	4.2%	18%	-15%
O=C(Nc1ccc(F)cc1)c1cccnc1NCCc1ccccc1	-5	-1.2%	-14%	-4%
COc1cc(OC)c(C(=O)NCc2cccnc2)cc1OC	2	-4.6%	-1%	9%
CC(NC(=O)COC(=O)c1cccc(S(=O)(=O)N2CCCC2)c1)c1ccccc1 (stereo not given)	nt	0.2%	nt	-7%
CC1CCN(C(=O)c2ccc(S(=O)(=O)Cc3cc(F)ccc3F)c([N+](=O)[O-])c2)CC1	4	4.9%	1%	1%
CSc1nncn1/N=C/c1ccccc1F	5	-2.3%	-6%	-1%
Cn1c(=O)oc2cc(S(=O)(=O)N3CCCC(C(=O)Nc4nccs4)C3)ccc21 (stereo not given)	3	-0.1%	-1%	14%
Cc1nn(Cc2ccc([N+](=O)[O-])cc2)c(=O)n1-c1ccccc1Cl	-21	-0.2%	-1%	4%
COc1ccc(NC(=O)Nc2cnccn2)cc1OC	nt	-2.1%	-9%	-12%
CN1C(=O)Nc2cccc3cccc1c23	nt	-1.4%	-11%	1%
CC(OC(=O)c1cc(O)c2ccccc2c1O)C(=O)Nc1ccc(C(N)=O)cc1 (stereo not given)	nt	-4.0%	nt	11%
COc1ccc(C(C(=O)NC(C)(C)C)N(CC2CCCO2)C(=O)CCC(=O)Nc2cc(C)on2)cc1 (stereo not given)	-4	-0.3%	-3%	2%
COc1ccccc1NS(=O)(=O)c1cc(NC(=S)NCCN2CCOCC2)ccc1N1CCOCC1	0	-0.5%	-5%	-15%
COc1cc(C2Nc3ccccc3NC3=C2C(=O)CC(C)(C)C3)cc(OC)c1OC (stereo not given)	nt	-0.4%	1%	-24%
Cc1cc(C)cc(NC(=S)/N=C(\N)Nc2nc(C)c3ccccc3n2)c1	0	-0.3%	-2%	4%
CC(=O)N(C)c1ccc(NC(=S)NCC(C)C)cc1	4	-0.8%	-12%	-9%
COC(=O)c1ccccc1NC(=O)c1ccc(Cn2cc(Cl)cn2)o1	-16	0.1%	-2%	12%
CCOC(=O)N1CCC2(CC1)CC(=O)c1cc(O)ccc1O2	2	-0.4%	-8%	-4%
O=C(N/N=C/c1cc([N+](=O)[O-])ccc1O)c1cccc(N2CCCC2=O)c1	nt	-4.1%	15%	-8%
COc1ccc(C)cc1S(=O)(=O)N1CCN(C(=O)c2ncoc2-c2cccc(F)c2)CC1	nt	-1.0%	-1%	6%
CC(C)CCNC(=O)c1ccc(Cn2c(=S)[nH]c3ccccc3c2=O)cc1	nt	-3.4%	-7%	0%
O=C(Nc1ccc2oc(-c3ccncc3)nc2c1)c1ccccc1	-1	-2.6%	-13%	2%
O=C(C1=C(O)C(=O)N(Cc2cccnc2)C1c1ccccn1)c1cccs1 (stereo not given)	-18	3.6%	-6%	-8%
O=S(=O)(Cc1cc(Oc2ccccc2)nc(-c2ccccc2)n1)c1ccccc1	3	-2.5%	-9%	0%
CCCCNC(=O)C1C2C=CC3(CN(Cc4ccccc4Cl)C(=O)C13)O2 (stereo not given)	-1	-2.8%	-12%	13%
Nc1nc2n(n1)C(=O)CC(c1ccccc1[N+](=O)[O-])N2 (stereo not given)	1	-0.2%	0%	-8%
CCc1cc2c(=O)[nH]cnc2s1	2	6.4%	0%	11%
CCCn1c(=NC(=O)c2ccco2)c(C(=O)OCC)cc2c(=O)n3ccccc3nc21	10	?	-4%	?
Cc1cc(C)n(CC(=O)N/N=C/c2ccco2)n1	-23	-2.4%	-4%	-5%
C=CCNC(=O)C12CCC(C)(C(=O)C1Br)C2(C)C (stereo not given)	3	0.1%	0%	-5%
Oc1ccc(Nc2nc(-c3cccnc3)cs2)cc1	nt	0.3%	-28%	19%
CNC(=O)N(O)C1N(c2ccccc2)C(=S)SC1(C)C (stereo not given)	-1	10%	-8%	16%
COc1cccc(-c2csc(NC(=O)C3CC3)n2)c1	-2	-3.8%	-49%	23%
CCCCc1oc2ccccc2c1C(=O)c1cc(I)c(OCCN(CC)CC)c(I)c1	-2&-5&1	-0.2%	15%	-7%
O=C(CCS(=O)(=O)c1ccc(Br)cc1)NCCc1ccccc1	nt	-0.2%	0%	17%
CC1(C)S[C@@H]2[C@H](NC(=O)Cc3ccccc3)C(=O)N2[C@H]1C(=O)O	-7&-4	-0.1%&1.9%	-6%&5%	-1%&1%
O=c1cc(-c2ccccc2Cl)c2c([nH]1)CCC2	4	-1.3%	-5%	-17%
CCOC(=O)c1c(/N=C/N(C)C)sc(/C=N/Nc2ccccc2)c1-c1ccccc1	-3	?	13%	?
CN(C(=O)c1ccc(NC(=O)Cc2cccc(NC(=O)C3CCCN(C(=O)C4CC4)C3)c2)cc1)C1CCCC1 (stereo not given)	nt	1.1%	nt	10%
Cc1ccc(C)c(C(=O)OCC(=O)N(C)c2ccccc2)c1	nt	-0.2%	-1%	3%
CCCCOCCCNCC(=O)Nc1ccc(S(N)(=O)=O)cc1	5	4.0%	3%	-14%
Cc1ccc(NC(=S)NCCN2CCOCC2)cc1	-9	-3.5%	0%	1%
Cc1ccc(NC(=O)CCc2c(C)nc3ncnn3c2C)cc1	9	-0.1%	7%	1%
O=C(CSc1nc2ccccc2n1CCc1ccccc1)N1CCOCC1	-14	-2.3%	-6%	-3%
Cn1nc(-c2ccccc2)c(C(=O)NC(C(=O)O)c2ccccc2)c1Cl (stereo not given)	0	0.0%	0%	-11%
C[N+]1(C2CCC3CCC2C3O)CCCC1 (stereo not given)	3	0.1%	1%	-12%
O=C1COc2ccc(C(=O)COC(=O)Cc3ccccc3F)cc2N1	-3	-2.9%	-2%	14%
Cc1ccc2oc(=O)cc(CN3CCC(C)CC3)c2c1	-3	0.2%	-7%	-6%
O=C(C1CCN(Cc2cc(Cl)ccc2O)CC1)N1CCN(Cc2ccccc2)CC1	1	-1.2%	14%	-2%

The listing continues:
SMILES	GLA inh pH 4.5	Rango complex inh	miR-21 reporter	Rango dissoc inh
CCCCc1nc2cc(C(=O)N3CCC(OC)CC3)ccc2o1	nt	1.0%	-40%	0%
CNc1c(NS(=O)(=O)c2ccc3c(c2)CCCC3)c(=O)oc2ccccc12	nt	-0.1%	3%	-10%
CCCCC(=O)Nc1ccc(NC(=S)NC(=O)CCCCl)cc1OC	3	3.1%	-5%	-12%
COc1ccccc1-n1c(SCC(=O)N2CCCCC2)nc2cccnc21	-4	?	-15%	-14%
COc1ccc(C(=O)c2c(O)cc(-c3ccc(OC)cc3)oc2=O)cc1	3	1.2%	-17%	-4%
Cn1/c(=N/NC(=O)c2ccccc2F)sc2ccccc21	2	-0.2%	-53%	5%
O=C(N/N=C\c1ccccc1F)c1ccc(-c2ccccc2)cc1	nt	-3.1%	-10%	7%
CCOC(=O)Cc1csc(NS(=O)(=O)c2ccc(C(F)(F)F)cc2)n1	-5	-1.2%	0%	-6%
COc1cccc(C2CC(C(F)(F)F)n3ncc(C(=O)NCC4CCCO4)c3N2)c1 (stereo not given)	4	0.7%	0%	18%
C=CCn1c(=NC(=O)C2COc3ccccc3O2)sc2cccc(OC)c21 (stereo not given)	-9	0.9%	2%	9%
Cc1c(N=C2NC(=O)C(CC(=O)Nc3ccc(Cl)cc3)S2)c(=O)n(-c2ccccc2)n1C (stereo not given)	-3	1.1%	-6%	-2%
C=CCOc1ccc(/C=C(\C#N)C(=O)Nc2ccccn2)cc1	nt	?	-1%	26µM*
O=C1c2ccccc2NC(c2cn[nH]c2-c2ccc(Cl)cc2)N1O (stereo not given)	-1	-3.2%	12%	-6%
COc1cc(/C=N/NC(=O)CC#N)ccc1Oc1nc(Cl)ncc1F	nt	-3.0%	-3%	?
Cc1ccc(/C=C(\C#N)C(=O)Nc2cccc3ncccc23)o1	1	?	5%	?
O=C(COc1ccc2ccccc2c1)NN1C(=O)c2ccccc2C1=O	3	-1.9%	-1%	21%
COCCNC(=O)CSc1cc(=O)n(C)c2cc(Cl)ccc12	1	-3.3%	0%	2%
COc1ccc(NC(=O)CC(C(=O)O)C(C)c2ccccc2)cc1 (stereo not given)	nt	-3.5%	-2%	-17%
COc1cc2c(cc1OC)C(c1cccc([N+](=O)[O-])c1)=NCC2	nt	-3.1%	-17%	4%
CCOC(=O)c1sc(NC(=O)Nc2ccccc2Cl)cc1C	-8	6.9%	22%	10%
CN1CCN(NC(=O)Nc2ccc(Br)cc2)CC1	nt	-2.9%	-12%	3%
Cc1ccsc1/C=N/NC(=O)c1ccc([N+](=O)[O-])cc1	5	-0.3%	-5%	10%
O=C(CC(Nc1ccccc1)C(=O)O)c1ccccc1 (stereo not given)	-2	?	-59%	?
Cc1ccc(C)c(OCCC(=O)OCC(=O)N(C)c2c(N)n(Cc3ccccc3)c(=O)[nH]c2=O)c1	nt	4.2%	nt	-13%
Cn1c(N)c(C(=O)c2ccccc2)c(=O)n(C)c1=O	3	1.3%	-1%	-10%
COc1ccccc1/C=C1\SC(N2CCC(C)CC2)=NC1=O	nt	-0.9%	-53%	-3%
CCN1CCN(C(=S)Nc2cccc([N+](=O)[O-])c2)CC1	-15	2.2%	-10%	1%
Cc1cccc(-n2nnnc2-c2cnccc2C(F)(F)F)c1C	-15	0.5%	8%	12%
NNC(=O)c1oc2nc(-c3ccccc3)cc(-c3ccco3)c2c1N	-5	?	10%	?
O=C(CN1C(=O)NC2(CCCCCC2)C1=O)Nc1ccc([N+](=O)[O-])cc1	nt	3.6%	nt	18%
O=C(N/N=C/c1ccc[nH]1)c1ccc2c(c1)OCO2	0	-4.4%	-34%	-6%
COc1ccc(CNC(=O)C2C3C=CC4(CN(Cc5cccnc5)C(=O)C24)O3)cc1 (stereo not given)	-1	-0.9%	1%	-3%

Given in markdown: entries from further up.
| SMILES | GLA inh pH 4.5 | Rango complex inh | miR-21 reporter | Rango dissoc inh |
| --- | --- | --- | --- | --- |
| CC(NC(=O)COC(=O)c1cccc(S(=O)(=O)N2CCCC2)c1)c1ccccc1 (stereo not given) | nt | 0.2% | nt | -7% |
| CC1CCN(C(=O)c2ccc(S(=O)(=O)Cc3cc(F)ccc3F)c([N+](=O)[O-])c2)CC1 | 4 | 4.9% | 1% | 1% |
| CSc1nncn1/N=C/c1ccccc1F | 5 | -2.3% | -6% | -1% |
| Cn1c(=O)oc2cc(S(=O)(=O)N3CCCC(C(=O)Nc4nccs4)C3)ccc21 (stereo not given) | 3 | -0.1% | -1% | 14% |
| Cc1nn(Cc2ccc([N+](=O)[O-])cc2)c(=O)n1-c1ccccc1Cl | -21 | -0.2% | -1% | 4% |
| COc1ccc(NC(=O)Nc2cnccn2)cc1OC | nt | -2.1% | -9% | -12% |
| CN1C(=O)Nc2cccc3cccc1c23 | nt | -1.4% | -11% | 1% |

High-throughput results (PubChem)

A portion of the library. The share of hits here may be higher or lower than overall.
